KAT2A inh: qHTS Assay for Inhibitors of GCN5L2. Histone acetyltransferase KAT2A (Homo sapiens), Q92830. GCN5L2 HAT assay, ThioGlo1 CoA-SH fluorescence. Potency, µM (highest dose often 58.9 µM), inactives show at the highest dose activity change, negative = inhibition, actives largely listed as inhibitors. 390,000 compounds, 0.21% hits. AID 504327, 2011
Target sequence (Q92830 whole entry, looked up): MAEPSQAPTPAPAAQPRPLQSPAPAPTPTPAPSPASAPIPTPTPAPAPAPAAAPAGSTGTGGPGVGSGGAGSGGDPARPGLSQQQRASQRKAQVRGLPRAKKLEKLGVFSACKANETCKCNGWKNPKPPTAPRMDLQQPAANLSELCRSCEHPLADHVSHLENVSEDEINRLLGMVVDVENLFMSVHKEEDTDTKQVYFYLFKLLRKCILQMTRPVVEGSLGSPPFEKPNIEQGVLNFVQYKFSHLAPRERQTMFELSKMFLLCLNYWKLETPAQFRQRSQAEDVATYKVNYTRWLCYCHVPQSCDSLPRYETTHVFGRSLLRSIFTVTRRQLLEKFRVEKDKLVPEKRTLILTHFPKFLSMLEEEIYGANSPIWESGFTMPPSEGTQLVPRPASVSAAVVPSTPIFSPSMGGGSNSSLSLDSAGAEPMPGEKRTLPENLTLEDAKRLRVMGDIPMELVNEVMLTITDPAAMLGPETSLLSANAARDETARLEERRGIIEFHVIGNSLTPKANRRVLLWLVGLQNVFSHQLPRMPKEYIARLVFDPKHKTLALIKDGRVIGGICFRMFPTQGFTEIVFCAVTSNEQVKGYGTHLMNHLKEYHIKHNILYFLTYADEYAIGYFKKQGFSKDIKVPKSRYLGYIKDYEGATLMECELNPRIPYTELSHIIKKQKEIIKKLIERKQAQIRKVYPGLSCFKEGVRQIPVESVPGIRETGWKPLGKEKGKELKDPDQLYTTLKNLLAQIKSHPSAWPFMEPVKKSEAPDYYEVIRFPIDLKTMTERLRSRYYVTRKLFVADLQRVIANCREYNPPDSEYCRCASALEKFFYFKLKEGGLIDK
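ThioGlo1-coupled HAT assay: 20nM GCN5L2, 70uM acetyl-CoA, 75uM H3(1-25) peptide, pH 7.5. Fluorescence read at 340/540nm at start and after 20 min at room temperature.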
FEN1 inh: qHTS Assay for the Inhibitors of Human Flap endonuclease 1 (FEN1); P39748; Recombinant FEN1 flap cleavage, fluorescence, 15 min; Potency, µM (series often up to 114 µM), inactives show top-dose activity change, negative = inhibition, hits mostly inhibitors; 390,000 compounds, 0.35% hits; also: nearly all actives have a fitted effect of over 65% in size
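FEN1 at 10 nM, compound pretreatment for 15 min (room temperature), 50 nM final substrate to initiate; endpoint reads at 0 and 15 min; DMSO-only plates used as vehicle background.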
An asterisk follows results filed as active; & = joins results of further samples. Calls follow the shape of the dose curve; as a rule, active = well fitted curve in the direction sought with a large enough effect; inconclusive = small, poorly fitted or top-dose-only effect, or another doubt; inactive = no such curve, though single readings can be large; an effect the other way counts as inactive or inconclusive. % is scaled to controls: 0 for no effect and ±100 for the full control effect; potency is read from the fitted curve at half-maximal effect. This is a subset; most or all hits stand in other tables.

The opening three entries, to show the layout:
Results for Cc1nnc(C)c2c(C)n(C(c3ccccc3)c3ccccc3)c(C)c12 ?
KAT2A inh: -2%; FEN1 inh: -6%

How did O=C(c1cc2ccccc2o1)N1CCN(S(=O)(=O)c2ccccc2)CC1 do in these assays?
KAT2A inh: -7%; FEN1 inh: 17%

Results for Cc1ccc(Cn2cnc3c(cnn3C(C)(C)C)c2=O)cc1 ?
KAT2A inh: -11%; FEN1 inh: -8%&-6%

Results, repeating the preview:
Results for Cc1nnc(C)c2c(C)n(C(c3ccccc3)c3ccccc3)c(C)c12 ?
KAT2A inh: -2%; FEN1 inh: -6%

How did O=C(c1cc2ccccc2o1)N1CCN(S(=O)(=O)c2ccccc2)CC1 do in these assays?
KAT2A inh: -7%; FEN1 inh: 17%

Results for Cc1ccc(Cn2cnc3c(cnn3C(C)(C)C)c2=O)cc1 ?
KAT2A inh: -11%; FEN1 inh: -8%&-6%

What do the screens show for `C=CCn1c(SCc2ccc(C#N)cc2)nnc1-c1ccccc1`?
KAT2A inh: -4%; FEN1 inh: 5%

What do the screens show for `COc1cccc(O)c1CN1CCCC(C(=O)c2cccc(C(F)(F)F)c2)C1` (configuration not stated)?
KAT2A inh: -9%; FEN1 inh: 0%

How did CCn1c(C(C)NC(=O)c2cccs2)nc2ccccc21 (configuration not stated) do in these assays?
KAT2A inh: -7%; FEN1 inh: -8%

How did COc1ccc(N2CCN(C(=O)CCn3nnc4ccccc43)CC2)cc1 do in these assays?
KAT2A inh: 0%; FEN1 inh: -2%

What do the screens show for `CN1CCN(c2oc(-c3ccc([N+](=O)[O-])cc3)nc2C#N)CC1`?
KAT2A inh: 21%; FEN1 inh: -15%

What do the screens show for `NC(=O)c1ccccc1NC(=O)CSC1=NCCS1`?
KAT2A inh: 2%; FEN1 inh: -2%

How did C[C@@]12C=CC(=O)C=C1CCC1C3CC(O)[C@@](O)(C(=O)CO)[C@]3(C)CC(O)[C@]12F (some centres not stated) do in these assays?
KAT2A inh: 9%

How did COc1ccc(/C(C)=C2/SC(=S)N(CCC(=O)O)C2=O)cc1 do in these assays?
KAT2A inh: -2%; FEN1 inh: -3%

What do the screens show for `O=C(CCc1nnc(Cc2ccc(-c3ccccc3)cc2)o1)NCC1CC1`?
KAT2A inh: 6%; FEN1 inh: 3%

What do the screens show for `O=S(=O)(Nc1ccc(-c2ccc3nncn3n2)cc1)c1ccccc1Cl`?
KAT2A inh: -12%; FEN1 inh: -4%

What do the screens show for `Cc1cc2ccccn2c1C(=O)c1ccccc1F`?
KAT2A inh: -5%; FEN1 inh: -16%

How did CC(/C=C/c1ccco1)=N\NC(=O)c1cc(Cl)ccc1O do in these assays?
KAT2A inh: -13%; FEN1 inh: -6%

Results for Cc1cc(Br)ccc1SCC(=O)NCC(c1ccco1)N1CCCCC1 (configuration not stated) ?
KAT2A inh: 3%; FEN1 inh: 2%

What do the screens show for `O=S1(=O)CCC(NS(=O)(=O)c2ccc3ccccc3c2)C1` (configuration not stated)?
KAT2A inh: -7%; FEN1 inh: -3%

Results for Cc1occc1-c1nnc(SCC(=O)N2CCOCC2)o1 ?
KAT2A inh: -5%; FEN1 inh: -2%

How did Cc1ccc(S(=O)(=O)N(C)C)cc1NC(=O)c1ccc(OC(F)(F)F)cc1 do in these assays?
KAT2A inh: 0%; FEN1 inh: 5%

What do the screens show for `Cc1ccc(CNC(=O)c2cccc(OCc3c(C)noc3C)c2)cc1`?
KAT2A inh: 0%; FEN1 inh: 3%

7 entries picked at random from the list so far:
How did COc1ccc(/C(C)=C2/SC(=S)N(CCC(=O)O)C2=O)cc1 do in these assays?
KAT2A inh: -2%; FEN1 inh: -3%

What do the screens show for `Cc1cc2ccccn2c1C(=O)c1ccccc1F`?
KAT2A inh: -5%; FEN1 inh: -16%

Results for Cc1occc1-c1nnc(SCC(=O)N2CCOCC2)o1 ?
KAT2A inh: -5%; FEN1 inh: -2%

How did Cc1ccc(S(=O)(=O)N(C)C)cc1NC(=O)c1ccc(OC(F)(F)F)cc1 do in these assays?
KAT2A inh: 0%; FEN1 inh: 5%

What do the screens show for `O=S(=O)(Nc1ccc(-c2ccc3nncn3n2)cc1)c1ccccc1Cl`?
KAT2A inh: -12%; FEN1 inh: -4%

How did COc1ccc(N2CCN(C(=O)CCn3nnc4ccccc43)CC2)cc1 do in these assays?
KAT2A inh: 0%; FEN1 inh: -2%

What do the screens show for `O=S1(=O)CCC(NS(=O)(=O)c2ccc3ccccc3c2)C1` (configuration not stated)?
KAT2A inh: -7%; FEN1 inh: -3%

Other structures follow.
Results for N#C/C(=C\c1ccncc1)c1nc2ccccc2c(=O)[nH]1 ?
KAT2A inh: -13%; FEN1 inh: -24%

How did O=C(O)CCC(=O)Nc1ccc(S(=O)(=O)N2CCCC2)cc1 do in these assays?
KAT2A inh: 3%; FEN1 inh: -11%

What do the screens show for `Cc1cc(NC(=O)CSc2nc3cc(C)c(C)cc3cc2C)no1`?
KAT2A inh: 3%; FEN1 inh: -4%

How did CCN1CCN(C(=O)c2cc3cc4ccc(OC)cc4nc3s2)CC1 do in these assays?
KAT2A inh: -20%; FEN1 inh: -1%

What do the screens show for `CN(C)c1ccc(C(CNS(=O)(=O)c2ccc(F)c(F)c2)c2c[nH]c3ccccc23)cc1` (configuration not stated)?
KAT2A inh: -11%; FEN1 inh: -11%

How did CCN(CC)CCc1nc(-c2ccccc2)no1 do in these assays?
KAT2A inh: -6%; FEN1 inh: 0%

How did CCCCC(NC(=O)c1ccc(Cl)cc1)C(=O)O (configuration not stated) do in these assays?
KAT2A inh: 0%; FEN1 inh: 25%

How did Cc1ccccc1Nc1nc(N)nc(CSc2nnc(C)n2C)n1 do in these assays?
KAT2A inh: -1%; FEN1 inh: -8%

How did CNC(=S)NCc1ccc(OC)cc1 do in these assays?
KAT2A inh: -1%; FEN1 inh: 5%

How did O=C(CSc1ncccc1C(=O)O)NC1CCCCCCC1 do in these assays?
KAT2A inh: -2%; FEN1 inh: 22%

How did Cc1cc(C)cc(NC(=O)Cn2cc3c(n2)CCCCC3)c1 do in these assays?
KAT2A inh: -7%

Results for CCOc1cc(-c2nc3n(c(=O)c2C#N)CCS3)ccc1O ?
KAT2A inh: -12%; FEN1 inh: -4%

Results for COc1ccc(C)cc1NC(=O)C(CCS(C)(=O)=O)NC(C)=O (configuration not stated) ?
KAT2A inh: -13%; FEN1 inh: 1%

Results for O=C1COc2ccccc2N1Cc1ccccc1Cl ?
KAT2A inh: 1%; FEN1 inh: -6%

What do the screens show for `Cc1cccc2cc(CN(CC(C)C)S(=O)(=O)c3ccccc3)c(=O)[nH]c12`?
KAT2A inh: -5%; FEN1 inh: -27%

Results for NC(=S)Nc1nc2ccccc2[nH]c1=O ?
KAT2A inh: -9%

What do the screens show for `C=C(C)CN1C(=O)C2(OCCO2)c2ccccc21`?
KAT2A inh: -5%; FEN1 inh: 0%

Results for COc1ccc(C(=O)CN2C(=O)NC3(CCCc4ccccc43)C2=O)cc1OC (configuration not stated) ?
KAT2A inh: -6%; FEN1 inh: 3%

Results for C=CCc1cc(Cl)ccc1OCCCNC(C)C ?
KAT2A inh: -3%; FEN1 inh: 0%

Results for CCc1cccc(C)c1NC(=O)c1ccccc1 ?
KAT2A inh: -2%; FEN1 inh: 5%

Results for O=C(NC1CCOCC1)C1CCC(=O)N(Cc2cccc(C(F)(F)F)c2)C1 (configuration not stated) ?
KAT2A inh: 0%; FEN1 inh: 6%

Results for N#C/C(=C\Nc1ccc2cn[nH]c2c1)c1nc(-c2ccccc2)cs1 ?
KAT2A inh: -17%; FEN1 inh: 3%

Results for Cc1ccccc1NC(=S)N(CCN(C)C)C(C)c1cccnc1 (configuration not stated) ?
KAT2A inh: -15%; FEN1 inh: 4%

Results for Cc1ccc(NC(=O)CN2C(=O)COc3ccc(S(=O)(=O)N4CCOCC4)cc32)cc1F ?
KAT2A inh: -2%; FEN1 inh: -19%

Results for CC1(C)Cc2ccccc2-c2nnnn21 ?
KAT2A inh: 0%; FEN1 inh: 10%

What do the screens show for `COC(=O)c1cc(Br)c(=O)n(CCc2ccc(O)cc2)c1`?
KAT2A inh: 0%; FEN1 inh: 2%

Results for COc1ccc(-c2nn(C)c(=O)c3ccccc23)cc1NC(=O)COc1ccccc1 ?
KAT2A inh: -10%; FEN1 inh: -5%

What do the screens show for `CC(C)c1nc2sc3c(SCC(N)=O)ncnc3c2c2c1CCC2`?
KAT2A inh: -4%; FEN1 inh: -9%

What do the screens show for `S=c1[nH]nc(CCCc2n[nH]c(=S)o2)o1`?
KAT2A inh: 0%; FEN1 inh: 3%

How did CC(=O)NCc1ccc(S(=O)(=O)NC(C(=O)O)C(C)C)cc1 (configuration not stated) do in these assays?
KAT2A inh: 2%; FEN1 inh: 14%

Results for CCCS(=O)(=O)N1CCCC(C(=O)NCCN(Cc2ccccc2)C(C)C)C1 (configuration not stated) ?
KAT2A inh: -3%; FEN1 inh: -4%

Results for C=CCSc1nc(C)c(CC(=O)OCC(C)C)c(=O)[nH]1 ?
KAT2A inh: -1%; FEN1 inh: 2%

How did CCCn1nnc(NCc2ccc(OCc3cccs3)c(OC)c2)n1 do in these assays?
KAT2A inh: -2%; FEN1 inh: -14%

What do the screens show for `O=C(O)c1cccc(NC(=O)c2cc(NC(=O)c3ccccc3)cc(NC(=O)c3ccccc3)c2)c1`?
KAT2A inh: -9%; FEN1 inh: 11%

Results for COc1cc([C@@H]2[C@H]3CN(C)CC=C3C(C#N)=C(N)C2(C#N)C#N)cc2c1OCO2 ?
KAT2A inh: -1%; FEN1 inh: -6%&-6%

How did CN(C)CCCNCC(=O)c1c(-c2ccccc2)n(C)c2ccccc12 do in these assays?
KAT2A inh: 19%; FEN1 inh: 14%

What do the screens show for `CCCCN1CN(S(=O)(=O)c2cccs2)c2nc3ccccc3nc21`?
KAT2A inh: -11%

Results for COc1ccc(NC(=O)C2CCCN(S(=O)(=O)c3ccc4c(c3)CCCN4C(C)=O)C2)cc1 (configuration not stated) ?
KAT2A inh: -2%&-2%; FEN1 inh: 14%&-1%

Results for COc1cc(C2=NOC(C(=O)Nc3c(C)n(C)n(-c4ccccc4)c3=O)C2)cc(OC)c1OC (configuration not stated) ?
KAT2A inh: 0%; FEN1 inh: 3%

What do the screens show for `CC(=C/c1ccccc1)/C=N/NC(=O)c1cccs1`?
KAT2A inh: 1%; FEN1 inh: -2%

Sorted by heavy-atom count (highest first): part of the list above
How did CN(C)CCCNCC(=O)c1c(-c2ccccc2)n(C)c2ccccc12 do in these assays?
KAT2A inh: 19%; FEN1 inh: 14%

What do the screens show for `CCCCN1CN(S(=O)(=O)c2cccs2)c2nc3ccccc3nc21`?
KAT2A inh: -11%

Results for CC1(C)Cc2ccccc2-c2nnnn21 ?
KAT2A inh: 0%; FEN1 inh: 10%

(list continues)
How did O=C(N/N=C/c1ccccn1)c1ccc(NC(=O)c2cccc([N+](=O)[O-])c2)cc1 do in these assays?
KAT2A inh: -8%; FEN1 inh: 14%

How did Cc1ccc(NC(=O)CS(=O)CC(=O)N(CC(=O)NC2CCCC2)c2ccc3c(c2)OCCO3)cc1 (configuration not stated) do in these assays?
KAT2A inh: -1%; FEN1 inh: 2%

What do the screens show for `CC1CC(=O)N(Cc2ccccc2)c2ccccc2N1C=O` (configuration not stated)?
KAT2A inh: -6%; FEN1 inh: 4%

Results for O=C(CSc1ncccn1)NCc1ccccc1 ?
KAT2A inh: -2%; FEN1 inh: -9%

Results for CCN1CCN(c2ccc(NC(=O)c3ccco3)cc2)CC1 ?
KAT2A inh: -14%; FEN1 inh: -9%

What do the screens show for `O=C(CSCc1ccccc1)Nc1ccc(Cl)cn1`?
KAT2A inh: -9%; FEN1 inh: -15%

What do the screens show for `CC(c1ccccc1)N1C(=O)CC(Sc2ncccc2C(=O)O)C1=O` (configuration not stated)?
KAT2A inh: -1%; FEN1 inh: 1%

Results for Cc1ccc(S(=O)(=O)N/N=C/c2cccc3c2OCCO3)cc1 ?
KAT2A inh: -1%; FEN1 inh: -13%

How did COc1ccc(Nc2ncc3c(n2)CC(c2ccc(OC)cc2)CC3=O)cc1 (configuration not stated) do in these assays?
KAT2A inh: -8%; FEN1 inh: 8%

How did CCOC(=O)N1CCC(Nc2ccc3nnc(-c4ccccc4)n3n2)CC1 do in these assays?
KAT2A inh: -9%; FEN1 inh: -2%

How did N#Cc1c(NC(=O)CCCN2C(=O)c3ccccc3C2=O)oc(-c2ccccc2)c1-c1ccccc1 do in these assays?
KAT2A inh: -10%; FEN1 inh: -7%

What do the screens show for `O=C(Nc1ccnn1C1CCN(C(=O)Cc2ccccc2F)CC1)C1CC1`?
KAT2A inh: 0%; FEN1 inh: 2%

What do the screens show for `COc1ccccc1NC(=O)NCCN1CCN(C(=O)Nc2ccccc2OC)CC1`?
KAT2A inh: -5%; FEN1 inh: -1%

How did Cc1ccnc(SCC(=O)c2cc3ccccc3o2)n1 do in these assays?
KAT2A inh: -5%; FEN1 inh: 15%

Results for CN(C)c1ccc(NC(=O)CN2CCN(c3ccc(F)cc3)CC2)cc1 ?
KAT2A inh: -16%; FEN1 inh: -3%

What do the screens show for `O=C1CSC(c2ccc(F)c(F)c2)N1c1ccccc1F` (configuration not stated)?
KAT2A inh: -19%; FEN1 inh: 18%

How did Cn1c(SCC(=O)O)nc2ccccc2c1=O do in these assays?
KAT2A inh: -4%; FEN1 inh: -2%

What do the screens show for `Cc1ccc(Sc2ncccc2C(=O)NCc2cc([N+](=O)[O-])ccc2O)cc1C`?
KAT2A inh: -21%; FEN1 inh: 12%

Source: PubChem
